GLA inh pH 4.5: inhibitors of human alpha-galactosidase A at pH 4.5; P06280; purified enzyme, 4-MU-alpha-Gal fluorescence, pH 4.5; activity change, negative = inhibition, % at 105 µM; 230,000 tested, under 10 active; AID 1467; inconclusive = small, poorly fitted or top-dose-only inhibition, or a rising curve; inactive = flat fitted curve, though single readings scatter; no compound was filed as active;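 note: 0% = full activity with enzyme and -100% = basal without enzyme; dose as in the result columns while the protocol names 77 µM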
Target sequence (P06280 whole entry, looked up): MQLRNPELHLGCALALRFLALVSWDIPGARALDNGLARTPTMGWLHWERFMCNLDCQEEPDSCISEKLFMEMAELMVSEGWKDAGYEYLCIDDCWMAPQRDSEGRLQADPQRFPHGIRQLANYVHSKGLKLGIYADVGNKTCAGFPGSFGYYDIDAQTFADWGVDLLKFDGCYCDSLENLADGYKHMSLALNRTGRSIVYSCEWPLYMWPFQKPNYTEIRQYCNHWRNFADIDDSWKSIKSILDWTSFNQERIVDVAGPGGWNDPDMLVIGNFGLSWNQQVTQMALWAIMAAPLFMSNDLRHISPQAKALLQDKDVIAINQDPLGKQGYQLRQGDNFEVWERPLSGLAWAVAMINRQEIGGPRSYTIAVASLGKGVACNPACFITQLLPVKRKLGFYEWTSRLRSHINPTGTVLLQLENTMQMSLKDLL
Starred values were filed as active, the others as inactive; & = joins results of further samples. Some of the compounds tested; rates above refer to the full screens.

SMILES,GLA inh pH 4.5
COCCNC(=O)COc1ccc(OCCNC[C@@H](O)COc2ccccc2)cc1,0
CCCCCCCCCCCCCCC[C@@H](O)[C@H](CO)NC(=O)CCCCCCC,-4
COC[C@H]1O[C@@H](c2c(OC)cc(OC)cc2OC)[C@H](OC)[C@@H](OC)[C@@H]1OC,-6
Cc1cccc(C)c1Nc1oc(-c2ccccc2)nc1-c1cccc2ccccc12,0
Cc1[nH]c(C)c(Cl)c(=O)c1Cl,-3
Cc1cc2c(cc1Cl)C(c1ccccc1C)CC(=O)O2 (stereo not drawn),-12
C[C@]12C[C@@](C)(C=C1/C=C/c1ccccc1)C(=O)C[C@H]2c1ccccc1,1
COc1cccc(O)c1O,1
CC(C)C[C@@H](CC(=O)N[C@@H](CCCN)CC(=O)N[C@@H]1CCCC[C@H]1C(=O)N[C@H](CC(=O)N[C@@H](CCC(=O)O)CC(=O)O)CC(C)C)NC(=O)[C@@H]1CNCC[C@H]1N,-2
Cc1nc(N=Nc2ccc(S(=O)(=O)O)cc2S(=O)(=O)O)c(COP(=O)(O)O)c(C=O)c1O,0&-3
COC(=O)[C@H](COC(C)(C)C)NC(=O)O[C@@H]1C(=O)c2cc(Br)ccc2O[C@H]1c1cccc(OC)c1,-7
NC(C(=O)O)C(O)C(=O)O (stereo not drawn),1
C=CCCCCCCCCCCCc1ccco1,4
COC(=O)[C@@]1(Cc2ccc(OC)cc2)[C@H]2c3cc(C(=O)N(C)C)n(Cc4cc(C)n(C)n4)c3C[C@H]2CN1C(=O)c1ccccc1,4
COC(=O)[C@@H]1[C@@H]2C[C@H]3c4[nH]c5cc(OC)ccc5c4CCN3C[C@@H]2C[C@H](OC(=O)c2cc(OC)c(OC)c(OC)c2)[C@H]1OC,-1

Entries from the list above that contain a carbonyl joined to an NH by a bond outside any ring, in the order listed:
SMILES,GLA inh pH 4.5
COCCNC(=O)COc1ccc(OCCNC[C@@H](O)COc2ccccc2)cc1,0
CCCCCCCCCCCCCCC[C@@H](O)[C@H](CO)NC(=O)CCCCCCC,-4
CC(C)C[C@@H](CC(=O)N[C@@H](CCCN)CC(=O)N[C@@H]1CCCC[C@H]1C(=O)N[C@H](CC(=O)N[C@@H](CCC(=O)O)CC(=O)O)CC(C)C)NC(=O)[C@@H]1CNCC[C@H]1N,-2
COC(=O)[C@H](COC(C)(C)C)NC(=O)O[C@@H]1C(=O)c2cc(Br)ccc2O[C@H]1c1cccc(OC)c1,-7

The list continues.
SMILES,GLA inh pH 4.5
CCCCNc1nc(C)nc2c1nc(-c1ccccc1)n2CCN1CCCCC1,-29
CS(C)(=O)=O,-1
c1ccc2c(c1)Cc1cc3cc4c(cc3nc1-2)OCO4,2
O=C(O)CN(CCN(CC(=O)O)CC(=O)O)CCN(CC(=O)O)CC(=O)O,0&-2
NC[C@@H]1O[C@@H](O[C@H]2[C@H](O)[C@@H](O[C@@H]3O[C@@H](CO)[C@H](O)[C@@H](N)[C@@H]3O)[C@H](N)C[C@@H]2N)[C@@H](O)[C@H](O)[C@H]1O,-8
COC(=O)C[C@H]1c2ccccc2C2=C(C[C@@H](C)[C@H]3C(=O)NC(=O)[C@@H]23)N1C(=O)OC,-3
O=C(OOC(=O)c1ccccc1)c1ccccc1,-6
N#Cc1cc2[nH]c(=O)c(=O)[nH]c2cc1[N+](=O)[O-],-19
O=C1C2C=CC=CC2=NC(=S)N1CCN1CCC(=C(c2ccc(F)cc2)c2ccc(F)cc2)CC1 (stereo not drawn),-17
CC[C@](N)(CCC(=O)O)C(=O)O,-1
C/C=C(\C)C(=O)O[C@H]1CC(C)=C2C(=O)C=C(C)C2[C@@H]2OC(=O)[C@@](C)(OC(=O)C=C(C)C)C21 (stereo partly drawn),1
C=C(C(C)=O)C(O)c1ccc2ccccc2c1 (stereo not drawn),1
C[C@@H]1CCc2cc(F)cc3c(=O)c(C(=O)O)cn1c23,2
Cc1ccc2oc(=O)c3c4cc(O)c(O)c(C)c4oc3c2c1,1
COC(=O)CNC(=O)[C@@]1(Cc2ccccc2)C=C[C@@H](C)N1C(=O)c1ccccc1,7

Pulled by structure from above, two records:
SMILES,GLA inh pH 4.5
NC[C@@H]1O[C@@H](O[C@H]2[C@H](O)[C@@H](O[C@@H]3O[C@@H](CO)[C@H](O)[C@@H](N)[C@@H]3O)[C@H](N)C[C@@H]2N)[C@@H](O)[C@H](O)[C@H]1O,-8
O=C(OOC(=O)c1ccccc1)c1ccccc1,-6

Next section:
SMILES,GLA inh pH 4.5
COCCNC(=O)C1(CC(C)C)C=CCN1C(C)=O (stereo not drawn),3
CC1(C)CC23C(=O)CCC(O)C2(C)CCC13 (stereo not drawn),-8
C=C1C2=CC(=O)OC(c3ccoc3)[C@]2(C)CCC1[C@]1(C)C=CC(=O)C(C)(C)C1CC(=O)OC (stereo partly drawn),-5
COC(=O)[C@H](Cc1ccccc1)NC(=O)O[C@@H]1C(=O)c2ccc(OC)cc2O[C@H]1c1ccc2c(c1)OCO2,-11
CN(Cc1ccco1)c1nc(-c2cccc(C#N)c2)nc2ccccc12,-1
O=C(NCCc1c[nH]c2ccccc12)[C@H]1C[C@@H]1[C@H](NP(=O)(c1ccccc1)c1ccccc1)c1ccccc1,-10
CN(C)CC[C@H](c1ccc(Br)cc1)c1ccccn1,0
O=c1c(O)c(-c2ccccc2)oc2cc(O)ccc12,-2
COC(=O)[C@@H]1C2CC3c4[nH]c5cc(OC)ccc5c4CCN3CC2C[C@H](OC(=O)c2cc(OC)c(OC)c(OC)c2)C1OC (stereo partly drawn),-9
COc1cccc(-c2cc(=O)c3cc(NC(=O)c4ccc(C)cc4)ccc3[nH]2)c1,2
CC(C)C[C@@H](CC(=O)N[C@@H](CCCN)CC(=O)N[C@@H]1CCNC[C@H]1C(=O)N[C@H](CC(=O)N[C@@H](CCC(=O)O)CC(=O)O)CC(C)C)NC(=O)[C@@H]1CNCC[C@H]1N,-8
COc1cc2c(cc1OC)C(C(=O)c1ccc(OC)c(OC)c1O)=NCC2,2
CO/N=C(\C(=O)N[C@@H]1C(=O)N2C(C(=O)O)=C(CSc3nc(=O)c(O)nn3C)CSC12)c1csc(N)n1 (stereo partly drawn),2
Cc1cccc(CNc2cc(-c3ccccc3CN(C)C)ncn2)c1,4
CCCCCC/C=C\CCCCCCCc1cccc(O)c1C(=O)O,2
COC(=O)[C@@]1(Cc2ccc(F)cc2)[C@H]2c3cc(C(=O)N(C)C)n(CCCNc4ccc(C(F)(F)F)cc4Cl)c3C[C@H]2CN1C(=O)c1ccccc1,-3
CCCCCCCCCCCCCCCCOCC(CO)OC (stereo not drawn),3
COP(=O)(OC)OC(c1ccc(Cl)cc1)P(=O)(OC)OC (stereo not drawn),-4
C#C[C@]1(O)CC[C@@H]2[C@H]3CCC4=CCCC[C@@H]4[C@@H]3CC[C@@]21C,0
COc1cc(C(=O)N2CCOCC2)cc(OC)c1OC,0
CC(C)Cn1nnnc1S(=O)(=O)Cc1ccccc1,-10
CC1(C)C=Cc2c(cc3occ(-c4ccc5c(c4)OCO5)c(=O)c3c2O)O1,-6
C=C1C(=O)[C@]23[C@H](O)[C@H]1CC[C@H]2[C@@]12COC3(O)[C@H](O)[C@@H]1C(C)(C)CC[C@@H]2O,-1
COc1ccc(-c2nc3c(c4c2C[C@H](c2ccccc2)OC4)CN(S(=O)(=O)c2ccc(NC(C)=O)cc2)CC3)c(C)c1,-3
CCC1=C(OC(=O)N(CC)CC)N2C(=O)OC(=NCCOC)[C@]2(C)[C@H]2C1=CC[C@H]1C(=O)N(CC)C(=O)[C@H]12,2
CCCCCCCC/C=C\CCCCCCCC(=O)OC[C@@H](O)COP(=O)(O)O,-6
O=C1CC(c2ccc(O[C@@H]3OC(CO)[C@@H](O)C(O)C3O)cc2)Oc2cc(O)ccc21 (stereo partly drawn),1
COC(=O)CC1C(C)(C)C(=O)C2CC3=C(CC[C@]4(C)C3=CC(=O)OC4c3ccoc3)[C@@]1(C)C2=O (stereo partly drawn),-18
CC(=O)OC1CC2C(C)(C)C(=O)C=C[C@]2(C)C2CC[C@@]3(C)C(c4ccoc4)OC(=O)C4O[C@@]43[C@]12C (stereo partly drawn),6
CC(C)C[C@@H](CC(=O)N[C@H](CC(=O)N[C@@H]1CCCC[C@H]1C(=O)N[C@H](CC(=O)N[C@@H](CCC(=O)O)CC(=O)O)Cc1ccccc1)C(C)C)NC(=O)[C@@H]1CCCC[C@H]1N,-1
O=C(NCCNC[C@@H](O)COc1ccc(O)cc1)N1CCOCC1,0&8
C#C[C@]1(O)CC[C@@H]2[C@H]3CCC4=Cc5oncc5C[C@]4(C)[C@@H]3CC[C@@]21C,2
COC(=O)C1=C(C)[C@H](O)[C@@H](C)[C@](C)(c2cc(OC)c(C)c(OC)c2COc2ccccc2)O1,0
CN(C)c1ccc(/C=C2\C(=O)Nc3ccccc32)cc1,-10&-19
Cc1nc2c(O)cccc2c(=O)[nH]1,-3
COC(=O)[C@@]1(C)CCC[C@@]2(C)c3ccc(O)c(C(C)C)c3CCC21 (stereo partly drawn),-12
Nc1ccc(-c2ccc3ccccc3n2)cc1,4
FC(F)(F)c1cc(NC(=S)NC(c2ccccc2)c2ccccc2)cc(C(F)(F)F)c1,-7
CCCCCCCCCCCCCC(=O)O[C@H](CC(=O)O)C[N+](C)(C)C,2
COc1cc2c(cc1OC)C(c1ccc(N)cc1)=NNC(=O)C2,-4
Nc1ncnc2c1nc(Cl)n2C1OC(CO)C(O)C1O (stereo not drawn),7
Cc1cccc(CNc2nc(-c3c(C)noc3C)nc3ccccc23)c1,-1
O=C1C(c2ccccn2)=[N+]([O-])c2ccccc21,-12
COC(=O)C1=C(C)[C@@H](O)[C@@H](C)[C@](C)(c2cc(OC)c(C)c(OC)c2COc2ccccc2)O1,-6
COc1ccccc1[C@@H]1C(c2ccc(F)cc2)=NN(c2ccc(Br)cc2)[C@H]1C(=O)N1CCOC1=O,2

Ordered by formula weight (smallest number first): part of the list above.
SMILES,GLA inh pH 4.5
Nc1ncnc2c1nc(Cl)n2C1OC(CO)C(O)C1O (stereo not drawn),7
C#C[C@]1(O)CC[C@@H]2[C@H]3CCC4=Cc5oncc5C[C@]4(C)[C@@H]3CC[C@@]21C,2
COC(=O)C1=C(C)[C@@H](O)[C@@H](C)[C@](C)(c2cc(OC)c(C)c(OC)c2COc2ccccc2)O1,-6

(list continues)
| compound | GLA inh pH 4.5 |
| --- | --- |
| CC(=O)OC[C@@]1(O)C[C@@]23CC[C@@H]4c5ccoc5CC[C@@]4(C)[C@@H]2CCC1C3 | -4 |
| CNc1ncnc2c1ncn2[C@@H]1O[C@H](CO)[C@@H](O)[C@@H]1O | 6 |
| NCCC[C@@H](CC(=O)N[C@@H]1CCCC[C@H]1C(=O)N[C@H](CC(=O)N[C@@H](CCC(=O)O)CC(=O)O)Cc1ccccc1)NC(=O)C[C@H](Cc1ccccc1)NC(=O)[C@@H]1CNCC[C@H]1N | -8 |
| CNC(=O)Oc1ccc2c(c1)C1(C)CCN(C)C1N2C (stereo not drawn) | -8 |
| CC(=O)[C@H]1CCC2C3CC=C4C[C@@H](OS(=O)(=O)O)CC[C@]4(C)C3CC[C@@]21C (stereo partly drawn) | -12 |
| C[C@@H]1C[C@H]2[C@H]3C[C@@H](F)C4=CC(=O)C=C[C@]4(C)[C@@]3(Cl)[C@@H](O)C[C@@]2(C)[C@@H]1C(=O)COC(=O)C(C)(C)C | 6 |
| COc1ccc2c(c1)C(c1ccccc1OC)CC(=O)O2 (stereo not drawn) | -3 |
| Nc1nc(NCC2CCC(CNS(=O)(=O)c3cccc4ccccc34)CC2)nc2ccccc12 (stereo not drawn) | -8 |
| CCOC(=O)CCCNC(=O)N1CCc2nc(COc3ccccc3)c3c(c2C1)CO[C@@H](C)C3 | -1 |
| CCC[C@@H]1C[C@@]1(CCC)C(NC(=O)c1ccco1)c1ccc(Cl)cc1 (stereo partly drawn) | -8 |
| CC(=O)OCC(=O)[C@@]12OC3(CCCC3)OC1CC1C3CCC4=CC(=O)C=C[C@@]4(C)[C@]3(F)C(O)C[C@]12C (stereo partly drawn) | -2 |
| COc1ccc(-c2nc3c(c4c2C[C@H](c2ccccc2)OC4)CN(C(=O)Cc2cccs2)CC3)c(C)c1 | -1 |
| O=c1cc(-c2ccc(O)cc2)oc2c([C@H]3O[C@@H](CO)[C@@H](O)[C@@H](O)[C@@H]3O)c(O)cc(O)c12 | 0 |
| CN(C)c1ccc(-c2nccc(NCc3ccccc3)n2)cc1 | -7 |
| CCC/C=C(\CCC)C(NC(=O)C(C)(C)C)c1ccc(C(=O)OC)cc1 (stereo not drawn) | -15 |
| COC(=O)[C@H](Cc1ccccc1)NC(=O)O[C@@H]1C(=O)c2ccc(OC)cc2O[C@H]1c1cccc(C(F)(F)F)c1 | -9 |
| COc1cc(OC)c2c(=O)c(-c3ccccc3)coc2c1 | 1 |
| CC(C)(C)NC(=O)[C@@H]1CC[C@@H]2[C@@H]3CC[C@@H]4NC(=O)C=C[C@@]4(C)[C@H]3CC[C@]21C | -2 |
| CC(N)=NCc1cccc(CN)c1 | 4&-1 |
| C[C@H](CCC(=O)O)[C@H]1CC[C@@H]2[C@H]3CC[C@H]4C[C@H](O)CC[C@]4(C)[C@@H]3CC[C@@]21C | -7 |
| C[C@@H]1CC[C@@]2(OC1)OC1CC3C4CC=C5CC(O)CCC5(C)C4CCC3(C)C1[C@@H]2C (stereo partly drawn) | -2 |
| O=C(O)/C=C/c1cccc(B(O)O)c1 | -3 |
| CC(C)NC[C@@H](O)COc1ccc(COCCOC(C)C)cc1 | 0&-1 |
| O=C(Cc1cccs1)NC1C(=O)N2C(C(=O)[O-])=C(C[n+]3ccccc3)CSC12 (stereo not drawn) | 4 |
| CC/C=C\C/C=C\C/C=C\C/C=C\C/C=C\C/C=C\CCC(=O)NCCO | 2 |
| COC(=O)c1ccccc1S(=O)(=O)N1CCc2nc(-c3ccc(OC)cc3C)c3c(c2C1)CO[C@@H](c1ccccc1)C3 | 7 |
| COCCNC(=O)[C@H](C)[C@@H]1C[C@@]1(C)[C@@H](NC(=O)OCc1ccccc1)c1ccccc1 | -1 |
| C[C@@]12CCC(=O)C=C1CC[C@@H]1[C@@H]2[C@H](O)C[C@]2(C)[C@@H]1CC[C@]2(O)C(=O)CO | -6 |
| COc1ccc(COC2OC[C@]3(C)[C@H]4C5=C(CN3C(=O)OC(C)(C)C)[C@H](C)C(CO)C(CO)C5CC[C@@H]24)cc1 (stereo partly drawn) | 4 |
| NCCNS(=O)(=O)c1cccc2cnccc12 | -4&3 |
